Biofilm kill mix = mixture kills Candida albicans biofilm cells | 120,000 tested, 0.02% active | AID 1242 | C. albicans biofilm persisters + clotrimazole, fluorescence viability; primary screen in compound mixtures of four per well | inhibition, % at 7.6 µM;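 active means inhibition above 30.3% in the primary screen of four-compound pools, then above 30% when the compound was retested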;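 further: compounds exposed to preformed 24 h biofilms for 48 h; the number belongs to the whole pool; some results filed as inactive read as strong as hits; inactives centre near 12; 0% = biofilm with clotrimazole alone and 100% = kill control; retested singly at about 60 µM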
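Test system: C. albicans CAF4-2 wild-type biofilms; buffer or medium: RPMI/MOPS medium, pH 7.0; schedule: 24 h biofilm formation, then 48 h compound exposure, 37 °C; detection: Alamar Blue fluorescence; measure: percent inhibition of biofilm viability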
Starred values were filed as active, the others as inactive. Only part of the results is shown; rates above refer to the full screens.

For Cc1cnc(C(=O)N2CCCC(C(=O)c3cccc(OC(C)C)c3)C2)cn1 (configuration not stated) the results were Biofilm kill mix 23.
`CCn1cc(C(=O)O)c(=O)c2cnc(N3CCN(C(=S)Nc4ccc(F)cc4)CC3)nc21` gave Biofilm kill mix 7.
COC(=O)[C@H]1C[C@@H]1[C@H](NC(=O)c1ccccc1)c1ccccc1 was read as Biofilm kill mix 0.
`COc1ccc(N2CCN(C(c3ccccc3)c3sc4nc(C)nn4c3O)CC2)cc1` (configuration not stated) gave Biofilm kill mix 9.
Screening CCCOC(=O)C1=C(C)NC(=O)NC1c1ccc(Br)s1 (configuration not stated) returned Biofilm kill mix 14.
Screening COc1ccc(CNCCNC(=O)c2cccs2)cc1OC returned Biofilm kill mix 10.
Screening Cc1cc(C(=O)COC(=O)C2=NNC(=O)CC2)c(C)n1CCc1ccccc1 returned Biofilm kill mix -1.
For C=CCOC(=O)C1=C[C@@H](c2ccc3c(c2)OCO3)C[C@@H](OCc2ccc(CO)cc2)O1 the results were Biofilm kill mix 11.
For Cn1ncc2c(O/N=C(\N)c3ccc(C(C)(C)C)cc3)ncnc21 the results were Biofilm kill mix 15.
For COCCOC(=O)c1c(C)oc2ccc(OS(C)(=O)=O)cc12 the results were Biofilm kill mix 15.
Screening O=C(Nc1ccc(F)cc1)N1CCN(CCc2ccccc2)CC1 returned Biofilm kill mix 8.
For O=C(N/N=C/C=C\c1ccccc1[N+](=O)[O-])c1ccccn1 the results were Biofilm kill mix 17.
Cn1c(=O)cc(SCC(=O)NCc2ccc(F)cc2)c2ccccc21 was read as Biofilm kill mix 11.
`O=C1CCC/C(=N\NC(=O)NC2CCCCC2)C1` gave Biofilm kill mix 6.
Screening CCNc1nc(NC(C)C)nc(OCCOC(=O)c2ccccc2)n1 returned Biofilm kill mix 8.
For CCOc1cc(S(=O)(=O)NCc2ccccn2)ccc1Cl the results were Biofilm kill mix 8.
For S=C(NCCc1ccccc1)N/N=C/C1CCCCC1 the results were Biofilm kill mix 19.
For CC12CCC(C(=O)Nc3c(Cl)cccc3Cl)(C(Br)C1=O)C2(C)C (configuration not stated) the results were Biofilm kill mix 8.
For Cc1cccc(NC(=O)COn2nnc3ccc(S(C)(=O)=O)cc32)c1 the results were Biofilm kill mix 11.
CCOC(=O)c1ccccc1NC(=O)C1CC(=O)N(c2ccccc2)C1 (configuration not stated) was read as Biofilm kill mix 21.

In the list so far, these contain sulfur:
`CCn1cc(C(=O)O)c(=O)c2cnc(N3CCN(C(=S)Nc4ccc(F)cc4)CC3)nc21` gave Biofilm kill mix 7.
`COc1ccc(N2CCN(C(c3ccccc3)c3sc4nc(C)nn4c3O)CC2)cc1` (configuration not stated) gave Biofilm kill mix 9.
Screening CCCOC(=O)C1=C(C)NC(=O)NC1c1ccc(Br)s1 (configuration not stated) returned Biofilm kill mix 14.
Screening COc1ccc(CNCCNC(=O)c2cccs2)cc1OC returned Biofilm kill mix 10.
For COCCOC(=O)c1c(C)oc2ccc(OS(C)(=O)=O)cc12 the results were Biofilm kill mix 15.
Cn1c(=O)cc(SCC(=O)NCc2ccc(F)cc2)c2ccccc21 was read as Biofilm kill mix 11.
For CCOc1cc(S(=O)(=O)NCc2ccccn2)ccc1Cl the results were Biofilm kill mix 8.
For S=C(NCCc1ccccc1)N/N=C/C1CCCCC1 the results were Biofilm kill mix 19.
For Cc1cccc(NC(=O)COn2nnc3ccc(S(C)(=O)=O)cc32)c1 the results were Biofilm kill mix 11.

Continued:
For CC(C)(C)CC(=O)Nc1cccc(-c2cn3cccnc3n2)c1 the results were Biofilm kill mix 13.
Screening CCOC(=O)c1cc(/C(C)=N/OC(=O)c2ccc(Cl)cc2)on1 returned Biofilm kill mix 18.
CCOc1cccc(N(C(=O)Cc2cccs2)C(C(=O)NC2CCCCC2)c2cccn2C)c1 (configuration not stated) was read as Biofilm kill mix 7.
CC(=O)OCC1=C(C(=O)O)N2C(=O)C(NC(=O)c3ccc(COc4ccc(Cl)cc4)o3)C2SC1 (configuration not stated) was read as Biofilm kill mix 8.
Cc1ccc(N2C(=O)[C@@H]3[C@H](C2=O)[C@H]2C=CC=NN2[C@@H]3C(=O)Nc2ccccc2)cc1 was read as Biofilm kill mix 19.
For O=C(O)c1cccc(NS(=O)(=O)c2ccc3c(c2)C(=O)c2ccccc2C3=O)c1 the results were Biofilm kill mix 9.
For COc1ccc(S(=O)(=O)NN(C)C)cc1N(C)S(=O)(=O)c1ccc(Cl)cc1 the results were Biofilm kill mix 21.
Screening O=C(Cc1ccc(F)cc1)Nc1nnc(SCC(=O)N2CCCCC2)s1 returned Biofilm kill mix 14.
For CCOC(=O)C1(Cc2cccc(OC)c2)CCN(Cc2ccc(OC)c(OC)c2)CC1 the results were Biofilm kill mix 16.
Screening OC(CNCC1CCCO1)COc1ccc(OCC(O)CNCC2CCCO2)cc1 (configuration not stated) returned Biofilm kill mix 8.
O=C(CSC1CS(=O)(=O)c2cc([N+](=O)[O-])ccc21)NNC(=O)c1ccccc1 (configuration not stated) was read as Biofilm kill mix 26.
`O=[N+]([O-])c1ccccc1S(=O)(=O)NCc1ccco1` gave Biofilm kill mix 12.
For O=C(OCC(O)COC(=O)c1cccnc1)c1cccnc1 the results were Biofilm kill mix 15.
Screening COC(=O)c1ccc(CNC(=O)COC(=O)COc2ccc(OC)cc2)cc1 returned Biofilm kill mix 13.
Cc1nc(SCC(N)=O)c([N+](=O)[O-])[nH]1 was read as Biofilm kill mix -1.
`CN(C)CCC(c1ccccc1)c1ccccn1` (configuration not stated) gave Biofilm kill mix 5.
Screening COc1ccc(OC)c(NC(=O)CSc2nnc3ccc(-c4ccncc4)nn23)c1 returned Biofilm kill mix 16.
For COc1ccc(NC(=S)NN2C(C)CCCC2C)cc1 (configuration not stated) the results were Biofilm kill mix 22.
`CCCCCCN(C(=O)CCCCCN1C(=O)NC(c2ccc(-c3ccccc3)cc2)C(C(=O)OCc2ccccc2)=C1C)C(C)C(=O)NCCCC` (configuration not stated) gave Biofilm kill mix -3.
`Cc1nc2ccccc2c(=O)n1CCCN1CCOCC1` gave Biofilm kill mix 30.
C#CCNC(=O)C1=C[C@H](c2ccc3c(c2)OCO3)[C@@H](CCCO)[C@H](OCC)O1 was read as Biofilm kill mix 26.
Screening COc1ccc(N=C(C)C2=C(O)c3ccccc3C2=O)cc1 returned Biofilm kill mix 18.
For O=C(C[n+]1ccn(CCCNP2(=O)C=C(c3ccccc3)OC(c3ccccc3)=C2)c1)c1cccs1 the results were Biofilm kill mix 14.
Screening O=C(Nc1ccc(Cl)cn1)c1cc2c(s1)-c1ccccc1OC2 returned Biofilm kill mix 8.
`O=C(CCSCCc1ccccn1)Nc1c(F)cc(F)cc1Br` gave Biofilm kill mix 21.
Screening C/C(=N\NC(=O)c1ccc(=O)[nH]n1)c1cccnc1 returned Biofilm kill mix 4.
`O=C(CSc1cn(Cc2cccc(F)c2)c2ccccc12)NCc1ccc(F)cc1` gave Biofilm kill mix 11.
For COc1cc(/C=N/NC(=O)c2ccc(CSc3nc4ccccc4[nH]3)cc2)ccc1O the results were Biofilm kill mix 12.
`O=[N+]([O-])c1cccc(/C=N/n2cnnc2)c1O` gave Biofilm kill mix 13.
For CCCCNS(=O)(=O)c1ccc2nc(SCC(N)=O)[nH]c2c1 the results were Biofilm kill mix 28.
For CCc1ccc(CCC(=O)Nc2ccc(C(C)=O)cc2)o1 the results were Biofilm kill mix 5.
`CN(C)c1ccc(C(=O)NNC(=O)Nc2ccccc2)cc1` gave Biofilm kill mix 14.
For N=c1sccn1CC(=O)NC(c1ccccc1)c1ccccc1 the results were Biofilm kill mix 14.
CC(=O)Nc1ccc(NC(=O)COC(=O)c2ccco2)cc1 was read as Biofilm kill mix 5.
Screening O=C(CCCc1nc2ccccc2s1)Nc1ccc(N2CCOCC2)cc1 returned Biofilm kill mix 12.
`COc1ccc(C(C)(C)C)cc1NC(=O)COC(=O)C(C)C` gave Biofilm kill mix 4.
O=S(=O)(c1ccc(Cl)cc1)N1CCCC(C(F)(F)F)C1 (configuration not stated) was read as Biofilm kill mix 17.
`C/C(CC(=O)NC(C)(C)C)=N\NC(=O)c1ccco1` gave Biofilm kill mix 18.
COC(=O)c1cc(NC(=O)Cc2cc(OC)c(OC)c(OC)c2)cc(C(=O)OC)c1 was read as Biofilm kill mix 13.
For Cc1ccc(-c2nnc(-c3ccccc3)o2)cc1 the results were Biofilm kill mix 15.

Four structures from above, arranged by molar mass, rising:
For Cc1ccc(-c2nnc(-c3ccccc3)o2)cc1 the results were Biofilm kill mix 15.
For CCc1ccc(CCC(=O)Nc2ccc(C(C)=O)cc2)o1 the results were Biofilm kill mix 5.
Screening O=C(CCCc1nc2ccccc2s1)Nc1ccc(N2CCOCC2)cc1 returned Biofilm kill mix 12.
COC(=O)c1cc(NC(=O)Cc2cc(OC)c(OC)c(OC)c2)cc(C(=O)OC)c1 was read as Biofilm kill mix 13.

More results.
`CS(=O)(=O)c1ccc(C(=O)NCc2ccccc2F)cc1` gave Biofilm kill mix 16.
Screening CSC1=C(C#N)C(c2sccc2C)CC(=O)N1 (configuration not stated) returned Biofilm kill mix 13.
`Cc1ccc(OCC(=O)O/N=C(\N)Cc2ccc([N+](=O)[O-])cc2)cc1C` gave Biofilm kill mix 14.
Screening COc1cc(CNn2cn[nH]c2=S)cc(Br)c1OCc1ccccc1F returned Biofilm kill mix 14.
For COc1ccc(/C(C)=N/Nc2nc3ccccc3n3cnnc23)cc1OC the results were Biofilm kill mix 13.
CC(/C=C/C=C/c1ccccc1)=N/NC(=O)CNc1ccccc1C was read as Biofilm kill mix -1.
`CC1=C(C(=O)OCc2ccccc2)C(c2ccc(C#N)cc2)NC(=O)N1CCCC(=O)O` (configuration not stated) gave Biofilm kill mix 13.
Screening COc1ccc(-c2oc3c(OC)c(OC)c(OC)c(O)c3c(=O)c2OC)cc1OC returned Biofilm kill mix 22.
`CCN(Cc1nc(-c2ccc(Cl)cc2)no1)CC1CCCO1` (configuration not stated) gave Biofilm kill mix 13.
`N/C(Cc1nc(-c2ccc(Br)cc2)cs1)=N\O` gave Biofilm kill mix 6.
Screening C=CCn1c(CC(C)(C)C)nc2ccccc21 returned Biofilm kill mix 9.
`CC(C)c1cccc(C(C)C)c1NC(=O)COC(=O)c1ccc(OCC(=O)Nc2cccc(C(F)(F)F)c2)cc1` gave Biofilm kill mix 13.
CCOC(=O)C1(C(=O)OCC)C(c2ccccc2)CC(O)N1C(C)=O (configuration not stated) was read as Biofilm kill mix 13.
`COC(=O)c1cccc(NC(=O)C(C)(C)C)c1` gave Biofilm kill mix 12.
CN(CCC#N)S(=O)(=O)c1ccc2[nH]cc(C(=O)NCCc3ccccc3)c(=O)c2c1 was read as Biofilm kill mix 9.
COc1cc(C(=O)Nc2ccc(C#N)cc2)c([N+](=O)[O-])cc1OC was read as Biofilm kill mix 28.
Cc1csc(NC(=O)CSc2ncc(-c3ccccc3)[nH]2)n1 was read as Biofilm kill mix 17.
N#Cc1c(N)nc2c(c1N)CC(CCl)O2 (configuration not stated) was read as Biofilm kill mix 8.
Screening COc1ccccc1NCc1ccc([N+](=O)[O-])s1 returned Biofilm kill mix 19.
For COc1cc(OC)cc(C(=O)N[C@H](C(=O)OCC(=O)Nc2ccc(C)cc2C)C(C)C)c1 the results were Biofilm kill mix 5.
For CCCCC(=O)Nc1cc([N+](=O)[O-])ccc1Cl the results were Biofilm kill mix 7.
Screening CC(C)(C)C(=O)COC(=O)C1CC(=O)N(c2ccccc2)C1 (configuration not stated) returned Biofilm kill mix 13.
CN(C)c1ccc(/C=N/NC(=O)c2ccn(C)n2)cc1 was read as Biofilm kill mix 3.
COc1ccc(S(=O)(=O)NCC2CCCN(C(=O)c3ccccc3)C2)cc1 (configuration not stated) was read as Biofilm kill mix 1.
`O=c1c2c(n3cnnc3n1C1CCCCC1)-c1ccccc1CC21CCCCC1` gave Biofilm kill mix -3.
Screening O=C(O)CCNC1C=CS(=O)(=O)C1 (configuration not stated) returned Biofilm kill mix 17.
For CN(C)c1ccc(/C=c2/sc3n(c2=O)NC2(c4ccccc4)N(C)C(=O)N(C)C2(c2ccccc2)N=3)cc1 (configuration not stated) the results were Biofilm kill mix 8.
Screening O=C(NCCc1cccc(Cl)c1)c1cc([N+](=O)[O-])ccc1Cl returned Biofilm kill mix 11.
Screening CCC(=O)Oc1ccc2ccccc2c1CNC(=O)c1ccccc1 returned Biofilm kill mix 22.
COC(=O)CCCC1=CC2=C(c3ccccc3)C(=O)C(C)(OC(=O)C3CCCC3)C(=O)C2=CN1Cc1ccco1 (configuration not stated) was read as Biofilm kill mix 11.
Clc1ccccc1CNCc1ccncc1 was read as Biofilm kill mix 13.
CCOC(=O)C1(Cc2ccccc2)CCCN(Cc2cnn(CC)c2)C1 (configuration not stated) was read as Biofilm kill mix 14.
For CC(=O)OCC(=O)N1CCN(c2ccc([N+](=O)[O-])cc2)CC1 the results were Biofilm kill mix 4.
CC(C)(C)OC(=O)N[C@@H](CCCCNC(=O)OCc1ccccc1)c1nnc([C@H](CCCCNC(=O)OCc2ccccc2)NC(=O)OC(C)(C)C)o1 was read as Biofilm kill mix 6.
For Clc1ccc(-n2ncc3c(N4CCCC4)ncnc32)cc1 the results were Biofilm kill mix 14.
For c1ccc(SCc2nc(-c3ccncc3)n[nH]2)nc1 the results were Biofilm kill mix 14.
COc1cccc(NC(=S)N2CCn3cccc3C2c2cccnc2)c1 (configuration not stated) was read as Biofilm kill mix 13.
For O=C(COC(=O)Cc1c(Cl)cccc1Cl)Nc1ccccc1-c1ccccc1 the results were Biofilm kill mix 19.
`COCCNC(=O)c1cc(-c2ccncc2)nc2ccc(S(=O)(=O)N3CCOCC3)cc12` gave Biofilm kill mix -3.
COC(=O)CSc1ncnc2scc(-c3ccccc3)c12 was read as Biofilm kill mix 30.
`Cc1[nH]c2ccccc2c1C(=O)CCl` gave Biofilm kill mix 5.

Source: PubChem BioAssay (PCMD)
